GIV-Gai inh: blocks GIV peptide binding to rat Galpha-i3; P08753; Galpha-i3/FITC-GIV peptide fluorescence polarization, 90 min; hits give low values; scaled: aluminum fluoride 0%, vehicle 100%; percent of control (FP), % (test concentration not listed); 0.42% of 210,000 active;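 active = replicate mean at 85% of control or lower, very high polarization wells dropped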;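 also: wells of about 15 µL received 100 nL stock; the first replicate is given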
Target sequence (P08753 whole entry, looked up): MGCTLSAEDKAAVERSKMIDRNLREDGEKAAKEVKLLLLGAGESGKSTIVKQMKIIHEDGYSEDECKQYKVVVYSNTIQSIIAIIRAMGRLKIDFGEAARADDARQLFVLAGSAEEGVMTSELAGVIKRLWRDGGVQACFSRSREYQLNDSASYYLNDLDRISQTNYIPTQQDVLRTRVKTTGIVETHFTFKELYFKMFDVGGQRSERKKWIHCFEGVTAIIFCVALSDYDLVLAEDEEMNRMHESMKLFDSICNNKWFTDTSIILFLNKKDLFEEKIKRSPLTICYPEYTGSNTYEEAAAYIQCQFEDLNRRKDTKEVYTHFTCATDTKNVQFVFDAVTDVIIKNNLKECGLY
Active calls of the source: *. Some of the compounds tested; count on the stated rates, not on these rows.

Screening CC(C)c1cc(C2CCCN2C(=O)Nc2ccc(Br)cc2F)on1 (centres undefined) returned GIV-Gai inh 104.
For CC1CCN(S(=O)(=O)c2ccc(-c3noc(C(=O)NCCN4CCOCC4)n3)cc2)CC1 the results were GIV-Gai inh 102.
Cc1c(CC(Cl)(Cl)Cl)c2c(n1CCC(=O)O)CC(C)(C)CC2=O was read as GIV-Gai inh 113.
`CCNC(=O)N1CCCN(Cc2ccc(C)s2)CC1` gave GIV-Gai inh 105.
Screening O=C(c1ccc(Cl)s1)N1CCCCC1CCN1CCOCC1 (centres undefined) returned GIV-Gai inh 103.
Screening CC(NC(=O)C1CCN(c2ncccc2-c2nc(-c3ccccc3)no2)CC1)c1ccccc1 (centres undefined) returned GIV-Gai inh 105.
`Cc1ccccc1CNC(=O)C1(C)CCCN(C(=O)NC(C)C)C1` (centres undefined) gave GIV-Gai inh 107.
`COc1ccccc1C(=O)N1N=C(C(F)(F)F)CC1(O)C(F)(F)F` (centres undefined) gave GIV-Gai inh 106.
`CCOc1ccc(N2CC(O)(c3ccc(OC(F)F)cc3)[N+]3=C2SCCC3)cc1` (centres undefined) gave GIV-Gai inh 107.
Cc1cccc(NC(=O)c2cccn3c(-c4ccccc4F)nnc23)c1 was read as GIV-Gai inh 104.
For Cc1ccc(CNC(=O)C2CCCN(c3ccncc3)C2)cc1 (centres undefined) the results were GIV-Gai inh 105.
Cc1cccc(OCC(=O)Oc2ccc(Cl)cc2NC2=NS(=O)(=O)c3ccccc32)c1 was read as GIV-Gai inh 103.
For CC(C)(C)c1csc(-c2csc(S(=O)(=O)NCC3CCCCC3)c2)n1 the results were GIV-Gai inh 104.
`COc1cc(OC)cc(-n2nc(C(=O)N3CCN(Cc4ccc5c(c4)OCO5)CC3)c3ccccc3c2=O)c1` gave GIV-Gai inh 102.
COc1ccccc1CNC(=O)c1c[nH]c2ccc(S(=O)(=O)N3CCC4(CC3)OCCO4)cc2c1=O was read as GIV-Gai inh 97.

Ordered by number of heavy atoms (descending): four of the compounds above
Screening CC(NC(=O)C1CCN(c2ncccc2-c2nc(-c3ccccc3)no2)CC1)c1ccccc1 (centres undefined) returned GIV-Gai inh 105.
Cc1cccc(NC(=O)c2cccn3c(-c4ccccc4F)nnc23)c1 was read as GIV-Gai inh 104.
`COc1ccccc1C(=O)N1N=C(C(F)(F)F)CC1(O)C(F)(F)F` (centres undefined) gave GIV-Gai inh 106.
Cc1c(CC(Cl)(Cl)Cl)c2c(n1CCC(=O)O)CC(C)(C)CC2=O was read as GIV-Gai inh 113.

(more compounds)
Screening O=c1oc2ccc(Br)cc2cc1-c1nc(-c2ccc(Cl)cc2)cs1 returned GIV-Gai inh 120.
COc1ccccc1C1Nc2ccc(Cl)cc2[C@H]2OCCC[C@@H]12 (some centres undefined) was read as GIV-Gai inh 103.
Cc1ccc(S(=O)(=O)c2cnc(N3CCc4ccccc4C3)nc2N)cc1C was read as GIV-Gai inh 104.
Screening COc1ccc(OC)c(NC(=O)N2CCN(c3cc(-c4cc(F)ccc4OC)ncn3)CC2)c1 returned GIV-Gai inh 103.
`Cc1nc(CN2C(=O)COc3cc(S(=O)(=O)NCCC4=CCCCC4)c(Cl)cc32)no1` gave GIV-Gai inh 106.
O=C1Nc2ccccc2C12CCN(S(=O)(=O)c1ccc(F)cc1)C2 (centres undefined) was read as GIV-Gai inh 103.
COc1ccccc1C(=O)Nc1ccc2nc(SCC(=O)NCCOc3ccccc3)sc2c1 was read as GIV-Gai inh 109.
`COc1ccc(C2C=C(c3ccc(Br)cc3)Nc3nc4ccccc4n32)cc1` (centres undefined) gave GIV-Gai inh 107.
Screening COc1ccc(-c2nnc3ccc4ccccc4n23)cc1[N+](=O)[O-] returned GIV-Gai inh 102.
Screening COc1cccc(-c2ccc(=O)n(CCc3nc(-c4ccccc4)no3)n2)c1 returned GIV-Gai inh 106.
Screening O=C(CC1CCCC1)N1CCN(c2ncnc3c2nnn3-c2ccccc2)CC1 returned GIV-Gai inh 94.
`COc1ccc(-n2ncc3c(Nc4c(C)n(C)n(-c5ccccc5)c4=O)ncnc32)cc1` gave GIV-Gai inh 103.
COc1ccc(/C=C2\C=C(c3ccccc3)N(c3ccc(Br)cc3)C2=O)cc1 was read as GIV-Gai inh 102.
CCOc1ccc(NC(=O)c2cc(S(=O)(=O)N3CCN(c4ccc(OC)cc4)CC3)ccc2F)cc1 was read as GIV-Gai inh 104.
Screening CCOC(=O)C1=C(C(=O)OCC)SC(=C2C(=S)C(C)(C)N(C(=O)CC(C)C)c3cc(C)ccc32)S1 returned GIV-Gai inh 115.
Screening O=C(CN1CCN(C(=O)c2sc3ncccc3c2-n2cccc2)CC1)N1CCCC1 returned GIV-Gai inh 106.
CC1CC(C)(C)N(C(=O)NC2CCCCC2)c2ccccc21 (centres undefined) was read as GIV-Gai inh 106.
For CCOc1cc(/C=c2/sc3nc(-c4ccc(Cl)cc4)nn3c2=O)ccc1OC(C)=O the results were GIV-Gai inh 102.
`COc1ccc(Cl)cc1NC(=O)c1sc2ncn(CC(=O)Nc3cccc(C(F)(F)F)c3)c(=O)c2c1C` gave GIV-Gai inh 116.
For O=S(=O)(c1cc(F)ccc1F)N1CCn2cccc2C1c1ccccc1F (centres undefined) the results were GIV-Gai inh 105.
`COc1cc(C2Nc3ccc4ccccc4c3C3=C2C(=O)CC(C)(C)C3)ccc1OCc1ccccc1` (centres undefined) gave GIV-Gai inh 105.
Cc1cc2c(=O)n(CC(=O)NCC(=O)N3CCN(c4ccccn4)CC3)cnc2s1 was read as GIV-Gai inh 102.
O=C(Nc1cc(C(=O)N2CCC(Cc3ccccc3)CC2)ccc1N1CC2CC(C1)c1cccc(=O)n1C2)c1ccncc1 (centres undefined) was read as GIV-Gai inh 115.
Nc1cc2c3c(c1)C(c1ccccc1)CCN3CCC2c1ccccc1 (centres undefined) was read as GIV-Gai inh 125.
COc1cccc(C2C3=C(CC(C)(C)CC3=O)OC3=C2C(=O)CC(C)(C)C3)c1OCC(=O)O was read as GIV-Gai inh 108.
COCCN1C(=O)/C(=C/c2c(NCCN3CCOCC3)nc3c(C)cccn3c2=O)SC1=S was read as GIV-Gai inh 194.
Cc1ccccc1-n1nnnc1C(C)(C)NCc1ccccc1 was read as GIV-Gai inh 104.
Screening CCOC(=O)C1CCN(c2nc(Cc3ccccc3)nc3sc(C)c(C)c23)CC1 returned GIV-Gai inh 106.
For O=c1ccc(-c2ccc(F)cc2)nn1CCc1nc(-c2ccccc2Br)no1 the results were GIV-Gai inh 100.
`O=C1C(=O)N(CCN2CCNCC2)C(c2ccccc2)/C1=C(\O)c1ccccc1` (centres undefined) gave GIV-Gai inh 110.

Quoted at random: 2 compounds from above, in no set order.
`COc1cc(OC)cc(-n2nc(C(=O)N3CCN(Cc4ccc5c(c4)OCO5)CC3)c3ccccc3c2=O)c1` gave GIV-Gai inh 102.
`Cc1ccccc1CNC(=O)C1(C)CCCN(C(=O)NC(C)C)C1` (centres undefined) gave GIV-Gai inh 107.

(further entries)
Screening CC(=O)c1ccccc1NC(=O)/C(=C/c1ccc2c(c1)OCO2)NC(=O)c1ccccc1Br returned GIV-Gai inh 116.
`Cc1ccc(-n2c(=S)[nH]c3c(sc(=S)n3-c3cc(C)ccc3F)c2=O)cc1` gave GIV-Gai inh 111.
Screening CCN(c1cccc(C)c1)S(=O)(=O)c1ccc2[nH]cc(C(=O)N3CCN(c4ccc(OC)cc4)CC3)c(=O)c2c1 returned GIV-Gai inh 107.
`Cc1ccc(N2C(=O)C3=C(C(c4ccc(Cl)cc4)=NCCN3)C2c2ccc(O)cc2)cc1` (centres undefined) gave GIV-Gai inh 106.
O=C1CSC2(C(=O)Nc3ccccc32)N1c1cccc(Br)c1 (centres undefined) was read as GIV-Gai inh 109.
`COc1ccc(CNc2c(C(=O)NCc3ccccc3)cnc3c2c(C)nn3-c2ccccc2)cc1` gave GIV-Gai inh 101.
`O=C(NCc1ccc(-c2nn3cnnc3s2)cc1)c1cncc(Br)c1` gave GIV-Gai inh 102.
For NS(=O)(=O)c1ccc(CCNS(=O)(=O)c2ccccc2-c2nc(-c3ccccc3)no2)cc1 the results were GIV-Gai inh 103.
For COC(OC)C12c3ccccc3C(c3ccccc31)C1C(=O)N(c3ccc(C)c(C)c3)C(=O)C12 (centres undefined) the results were GIV-Gai inh 121.
`CCOCCOC(=O)C1=C(C)NC2=C(C(=O)CC(c3cccs3)C2)C1c1ccc(OC(C)=O)cc1` (centres undefined) gave GIV-Gai inh 121.
Screening O=S(=O)(c1cn(Cc2noc(COc3ccccc3)n2)cn1)N1CCCCC1 returned GIV-Gai inh 116.
Screening Cc1cc(-c2cc(S(=O)(=O)N3CCC(Cc4ccccc4)CC3)c(C)s2)n[nH]1 returned GIV-Gai inh 100.
Screening Cc1ccc(C(=O)[C@@H]2[C@@H](c3cccc(I)c3)C(C#N)(C#N)[C@H]3C=Cc4ccccc4N23)cc1 returned GIV-Gai inh 115.
CCN(CC)S(=O)(=O)c1ccc(C(=O)Nc2c3c(nn2-c2ccc(C)cc2)CS(=O)(=O)C3)cc1 was read as GIV-Gai inh 108.
`O=C(c1ccc2c(c1)ncn2-c1ccc(OCc2ccccc2)cc1)N1CCOCC1` gave GIV-Gai inh 109.

For convenience, some entries already given.
Screening CC(=O)c1ccccc1NC(=O)/C(=C/c1ccc2c(c1)OCO2)NC(=O)c1ccccc1Br returned GIV-Gai inh 116.
`Cc1ccc(-n2c(=S)[nH]c3c(sc(=S)n3-c3cc(C)ccc3F)c2=O)cc1` gave GIV-Gai inh 111.
Screening CCN(c1cccc(C)c1)S(=O)(=O)c1ccc2[nH]cc(C(=O)N3CCN(c4ccc(OC)cc4)CC3)c(=O)c2c1 returned GIV-Gai inh 107.
`Cc1ccc(N2C(=O)C3=C(C(c4ccc(Cl)cc4)=NCCN3)C2c2ccc(O)cc2)cc1` (centres undefined) gave GIV-Gai inh 106.

Gathered by group, the entries above with a COOH group (2)
Cc1c(CC(Cl)(Cl)Cl)c2c(n1CCC(=O)O)CC(C)(C)CC2=O was read as GIV-Gai inh 113.
COc1cccc(C2C3=C(CC(C)(C)CC3=O)OC3=C2C(=O)CC(C)(C)C3)c1OCC(=O)O was read as GIV-Gai inh 108.

The list goes on.
CCN1CCN(CCCNS(=O)(=O)c2cc(-c3nc(C)c(C)s3)sc2C)CC1 was read as GIV-Gai inh 108.
`O=C(Nc1nc2ccc(S(=O)(=O)N3CCCCC3)cc2s1)C1CCCO1` (centres undefined) gave GIV-Gai inh 99.
`COc1ccc(CONC(=Nc2ccc(C)cc2)c2nonc2N)cc1` gave GIV-Gai inh 118.
Screening Clc1ccccc1-c1nnc2n1CCCCC2 returned GIV-Gai inh 126.
For CCN(CC)c1nc(C)nc2sc(C(=O)Nc3ccccc3C(=O)OC)c(C)c12 the results were GIV-Gai inh 105.
For CC(=O)Nc1ccc(N2C(=O)c3ccccc3C2C(=O)NCCCOC(C)C)cc1 (centres undefined) the results were GIV-Gai inh 108.
O=S(=O)(c1cccc2nonc12)N1CCC(Cc2ccccc2)CC1 was read as GIV-Gai inh 92.
Screening O=C1C(=O)N(CCCN2CCOCC2)C(c2ccc(Cl)cc2)/C1=C(\O)c1ccc(F)cc1 (centres undefined) returned GIV-Gai inh 111.
Screening CCCn1cnc2sc(C(=O)N3CCN(C(=O)OCC)CC3)c(C)c2c1=O returned GIV-Gai inh 104.
Screening Cc1ccc(NC(=O)c2sc(=S)n(-c3ccc(C)c(C)c3)c2N)cc1 returned GIV-Gai inh 104.
For COc1ccc(OC)c(NC(=O)CSc2nc3ccccc3c(=O)n2CCC(=O)N2CCN(c3ccccc3)CC2)c1 the results were GIV-Gai inh 108.
`COc1ccc(CCNC(=O)CSc2nc3n[nH]c(C)c3c(=N)n2-c2ccc(Br)cc2)cc1OC` gave GIV-Gai inh 108.
For O=C(c1ccc(F)c(F)c1)N1CCc2c([nH]c3ccccc23)C1c1ccc([N+](=O)[O-])cc1 (centres undefined) the results were GIV-Gai inh 109.
`COC(=O)C1=C(C(=O)OC)SC(=C2C(=S)C(C)(C)N(C(=O)c3ccccc3Cl)c3ccccc32)S1` gave GIV-Gai inh 111.
O=C(C1CCN(c2nc(-c3ccc(Cl)cc3)no2)CC1)N1CCCCC1 was read as GIV-Gai inh 104.
For COc1ccc(-n2ccc(=O)c(-c3nc(-c4cccc(F)c4)no3)n2)cc1 the results were GIV-Gai inh 98.
`CCOC(=O)c1ccc(N2C(=O)c3ccccc3NC2c2cccc([N+](=O)[O-])c2)cc1` (centres undefined) gave GIV-Gai inh 109.
`Cc1cc(NC(=O)CCc2nc(CSc3nc4ccc(Cl)cc4[nH]3)no2)no1` gave GIV-Gai inh 107.
O=S(=O)(NCCc1n[nH]c(Cc2ccc(F)cc2)n1)c1ccccc1F was read as GIV-Gai inh 104.
`CCCCCCCCNC(=O)c1c[nH]c2ccc(S(=O)(=O)N(C)c3ccccc3OCC)cc2c1=O` gave GIV-Gai inh 103.
COc1ccc(C(=O)N2CCCC(c3nc(-c4ccc(NC(C)=O)cc4)no3)C2)c(OC)c1 (centres undefined) was read as GIV-Gai inh 103.
`CCN(c1cccc(C)c1)S(=O)(=O)c1ccc2[nH]cc(C(=O)NCCc3ccc(OC)c(OC)c3)c(=O)c2c1` gave GIV-Gai inh 100.
For CC(C)c1ccc(C2/C(=C(\O)c3ccccc3)C(=O)C(=O)N2CCN(C)C)cc1 (centres undefined) the results were GIV-Gai inh 109.
Screening COC(=O)C1=CN(Cc2ccc(OC)c(OC)c2)C=C(C(=O)OC)C1c1cc(OC)c(O)c([N+](=O)[O-])c1 returned GIV-Gai inh 106.
`O=C1CCCC2=C1C(c1ccc(Br)cc1)C1C(=O)c3ccccc3C1=N2` (centres undefined) gave GIV-Gai inh 113.
Screening Cc1cccc(S(=O)(=O)N2C[C@@H]3CN(S(=O)(=O)c4cnc[nH]4)C[C@H](C2)O3)c1 returned GIV-Gai inh 98.
Screening C=CCn1c(C(=O)NCCc2c[nH]c3ccccc23)cc2cc(S(=O)(=O)N(C)C)ccc21 returned GIV-Gai inh 98.
For CCN(CC)c1nc2ccsc2c(=O)n1CCC(=O)NCC1CC1 the results were GIV-Gai inh 102.
Screening CN(C)C(=O)c1cc(NS(=O)(=O)c2ccc3c(c2)CCCC3)ccc1N1CCNCC1 returned GIV-Gai inh 104.
`O=C1C(Nc2ccc(F)cc2)=CC(c2cccc3ccccc23)N1c1ccc(F)cc1` (centres undefined) gave GIV-Gai inh 109.
